UCH37 DUB inh: blocks the human deubiquitinase UCH37; Q9Y5K5; purified proteasome/UCH37, Ub-AMC cleavage fluorescence; inhibition, % (concentration not given with the values); 330,000 compounds, 0.33% hits; AID 588478;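 active = mean of two replicates above 20%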;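 note: 0% = compound-free wells with enzyme and 100% = wells lacking proteasome; stock transfer was 100 nL into about 20 µL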
Target sequence (Q9Y5K5 whole entry, looked up): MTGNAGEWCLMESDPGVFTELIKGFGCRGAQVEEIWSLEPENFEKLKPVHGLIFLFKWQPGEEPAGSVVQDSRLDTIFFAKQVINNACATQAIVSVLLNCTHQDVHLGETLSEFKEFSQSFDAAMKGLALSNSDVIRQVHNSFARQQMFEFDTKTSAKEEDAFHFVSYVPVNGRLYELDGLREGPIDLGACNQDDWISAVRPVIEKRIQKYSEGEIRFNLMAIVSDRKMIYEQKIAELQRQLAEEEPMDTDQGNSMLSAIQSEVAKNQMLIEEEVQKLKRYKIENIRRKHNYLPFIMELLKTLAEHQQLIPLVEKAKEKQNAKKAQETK
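Material: Human UCH37 enzyme supplied as purified proteasome complex | Schedule: 30 min compound-proteasome preincubation then 25 min substrate reaction, room temperature | Detection: AMC fluorescence from Ub-AMC cleavage, excitation 355 nm, emission 460 nm | Benchmarks: Wells without proteasome as full block, compound-free enzyme plus substrate as uninhibited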
Ecoli rRNA inh: inhibitors of bacterial rRNA selective over humanized ribosomes; E. coli WT GFP vs humanized-ribosome RFP mutants, fluorescence, 24 h; stronger effect = lower value; DMSO median 0, no signal -100; GFP signal change (wild-type ribosome), % (test concentration not listed); 350,000 compounds, 1.6% hits; AID 720706;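 active = significant combined selectivity score with lowered wild-type GFP, culture density cut under 30%, mutant RFP and density less affected; inactive = any of these conditions unmet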; note: one replicate is shown; some compounds called inactive have numbers as strong as hits
FGF22 binding: FGF22 (human) thermal shift binding | Q9HCT0 | recombinant FGF22 thermal shift, SYPRO orange fluorescence; percent of sucrose octasulfate shift, DMSO zero | calls only at 9.99 µM | AID 651658 | 340,000 compounds, 1.5% hits;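 active = melting point raised past a set limit in the mean and every replicate; three in four hits are not shown here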
Target sequence (Q9HCT0 whole entry, looked up): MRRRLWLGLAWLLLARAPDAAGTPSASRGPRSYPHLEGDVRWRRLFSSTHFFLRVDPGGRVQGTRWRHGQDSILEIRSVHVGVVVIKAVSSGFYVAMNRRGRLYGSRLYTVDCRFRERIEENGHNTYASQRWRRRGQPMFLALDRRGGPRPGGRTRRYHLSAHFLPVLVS
ALR inh: human ALR oxidase inhibition via reduced H2O2 | purified ALR, DTT oxidation, H2O2 HRP-luminol luminescence | inhibition, % (no concentration beside the values) | 290,000 compounds, 3.8% hits;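 active = mean and each replicate at 75% or more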;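 note: stock transfer was 7.5 nL into about 7.5 µL; 0% = neutral wells and 100% = wells with inactivated enzyme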
Beta2AR agonist: human beta-2 adrenergic receptor agonism by FAP. P07550. Am2.2-beta2AR cells, FAP receptor internalization, flow cytometry; reference of the scale not given here. response, % (test concentration not listed). 340,000 compounds, 0.43% hits;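 active = response above a set limit, near 3 SD of response in nonfluorescent compounds, cut at about 42% in these data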;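 note: stock transfer was 100 nL into about 11 µL; a reference agonist was the positive control; negative values mostly stem from fluorescent compounds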
Target sequence (P07550 whole entry, looked up): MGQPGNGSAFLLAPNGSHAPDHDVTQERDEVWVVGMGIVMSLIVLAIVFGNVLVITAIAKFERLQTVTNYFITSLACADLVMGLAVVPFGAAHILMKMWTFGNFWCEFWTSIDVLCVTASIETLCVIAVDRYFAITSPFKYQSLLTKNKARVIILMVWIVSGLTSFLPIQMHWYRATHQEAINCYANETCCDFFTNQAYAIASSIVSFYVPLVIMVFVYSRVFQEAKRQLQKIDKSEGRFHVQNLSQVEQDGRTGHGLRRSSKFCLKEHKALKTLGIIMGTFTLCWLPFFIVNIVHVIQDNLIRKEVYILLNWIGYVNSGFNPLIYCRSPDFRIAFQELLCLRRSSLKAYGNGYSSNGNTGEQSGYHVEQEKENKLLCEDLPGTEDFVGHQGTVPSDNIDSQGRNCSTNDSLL
E coli growth: E. coli growth inhibition. Escherichia coli growth, OD600, 23 h; stronger effect = lower value. 330,000 compounds, 0.21% hits. OD600 absorbance (concentration not given with the values);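 active = OD600 absorbance below the run mean of sample wells minus 3.6 SD, in any replicate, cut at about 0.56 in these data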;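 note: stock transfer was 300 nL into about 60 µL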
HNF4A DNA FP: change in binding of human HNF4 alpha to DNA; 360,000 compounds, 0.3% hits; P41235; HNF4a-FITC DNA binding, fluorescence polarization, 1 h; activity change, % at 10 µM; in the data active = activity change above about 30%, passing the limit was not always enough;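 note: controls were the assay level and a saturating level of protein; the project sought stronger binding though the title names inhibitors; some compounds called inactive have numbers as strong as hits; positive values seem to mean higher polarization but the record does not say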
Ecoli rRNA inh OD600: further read-out of Ecoli rRNA inh, marked with its call; OD600 change, %; measured here: OD600 growth;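 optical density of the mix in the first replicate; 0 = DMSO median and -100 = no signal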
Ecoli rRNA inh RFP: also measured in Ecoli rRNA inh; calls as there; RFP signal change, %; measured here: RFP humanized mutant strains;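 first replicate; 0 = DMSO median and -100 = no signal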
* hit, by the source's call; i = inactive; . = not tested or not shown. Only part of the results is shown (hit frequency here may not be typical).

SMILES	UCH37 DUB inh	Ecoli rRNA inh	Ecoli rRNA inh OD600	Ecoli rRNA inh RFP	FGF22 binding	ALR inh	Beta2AR agonist	E coli growth	HNF4A DNA FP
CCN1CCN(C(=O)CN(c2cc(OC)ccc2OC)S(C)(=O)=O)CC1	3.3	.	.	.	.	-1	1	0.71	-1.4
CCCCSc1nc(O)c(Cc2ccccc2)c(=O)[nH]1	0.5	.	.	.	.	-10	4	0.74	1.3
CN1CCc2c(sc(NC(=O)Cc3ccccc3)c2C(N)=O)C1	2.0	6	9	0.9	i	2	3	0.77	-1.1
c1ccc(-c2csc3nnc(SCc4ccc5c(c4)OCCO5)n23)cc1	4.9	.	.	.	.	-6	-18	0.7	1.3
CCc1c(C)[nH]c2ccc(C)cc2c1=O	0.8	.	.	.	.	-1	-5	0.7	-0.6
O=C(Nc1ccc(Br)cc1)N1CCCCCCC1	0.4	.	.	.	.	-7	-8	0.76	-2.8
O=c1cc[nH]c2c(Cl)cccc12	4.5	5	18	1.8	i	-7	-13	0.64	3.5
CCn1c(C)nc2cc(S(=O)(=O)C(F)(F)F)ccc21	2.9	.	.	.	.	1	2	0.71	1.4
OC1(c2ccc(Cl)cc2)CCN(Cc2nc(-c3cnccn3)no2)CC1	0.3	10	-1	-1.0	i	6	-6	0.74	0.6
CNC(=O)c1ccc(NC(=O)CC23CC4CC(CC(C4)C2)C3)cc1	2.8	-10	-19	-1.1	i	-10	3	0.68	3.1
O=C1Nc2c(c(=O)[nH]c(=O)n2-c2ccccc2)C(C(F)(F)F)(C(F)(F)F)N1	2.9	.	.	.	.	-11	1	0.71	-3.3
CC1CCc2c(sc3nc(CSc4nnnn4C)[nH]c(=O)c23)C1 (stereo unspecified)	3.0	-12	-8	-8.8	i	-17	-5	0.68	16
COCCCNC(=O)Cn1cc(C(=O)C2CC2)c2ccccc21	1.8	.	.	.	.	-6	-2	0.69	6.4
c1coc(-c2nnc3sc(Cc4cccs4)nn23)c1	1.5	.	.	.	.	0	-1	0.56	-8.0
CS(=O)(=O)n1nc(OC(=O)c2cccc3ccccc23)cc1N	3.9	.	.	.	.	2	8	0.69	7.9
COc1cccc(NC(=O)C2CCC2)c1	2.9	5	9	2.3	i	.	3	0.69	0.3
Cc1cccc(N(Cc2cc3ccccc3[nH]c2=O)S(C)(=O)=O)c1	-5.7	-17	-13	-0.5	i	-7	-9	0.65	-3.1
O=C(NNS(=O)(=O)c1ccccc1[N+](=O)[O-])c1cc2ccccc2cc1O	5.0	-11	-8	2.7	i	20	-1	0.67	2.7
CCCNC(=O)CN(c1ccc(F)c(Cl)c1)S(C)(=O)=O	0.1	.	.	.	.	-2	-8	0.69	4.0
Cc1ncsc1CCSc1n[nH]c(=O)n1-c1ccccc1	-0.3	.	.	.	.	3	-3	0.66	-3.7
COc1cc(C(O)c2nc(-c3ccccc3C)cs2)ccc1F (stereo unspecified)	.	-50	-65	-6.8	i	.	.	.	3.1
CN(C(=O)Cn1nc(Cl)ccc1=O)C1CCCN(Cc2ccccc2F)C1 (stereo unspecified)	-0.4	9	5	4.7	i	4	5	0.7	-0.6
O=C(C[n+]1ccccc1)N/N=C/c1ccc(Br)cc1	.	.	.	.	i	-1	4	.	-2.3
COc1ccc(NC(=O)CN(C)S(=O)(=O)c2ccc(Cl)cc2)c([N+](=O)[O-])c1	3.5	11	-3	-10	i	-13	-2	0.67	4.9
CCSc1ccccc1C(=O)N1CCCC1	0.8	.	.	.	.	3	-2	0.67	-0.7
O=C(Nc1nncs1)C1(c2ccccc2)CCCC1	0.0	.	.	.	.	1	3	0.71	0.7
CC(=O)NC(Cc1c[nH]c2ccccc12)C(=O)OCC(=O)Nc1ccc2c(c1)OCO2 (stereo unspecified)	4.2	.	.	.	.	89*	16	0.7	-1.4
CCOc1ccc(C(=O)OCC(=O)c2c(N)n(C)c(=O)n(C)c2=O)cc1OCC	-0.9	.	.	.	.	2	0	0.71	-0.3
Cc1onc(-c2ccccc2)c1C(=O)N[C@@H]1C(=O)N2C1SC(C)(C)[C@@H]2C(=O)O (stereo partly specified)	.	.	.	.	i	.	-6	.	-3.3
CCOc1cccc2sc(N(CCN(C)C)C(=O)c3ccc(Br)s3)nc12	-61	3	5	9.3	i	-5	-3	0.66	-0.6
CC1CC(C)CN(C(=O)Cn2nnc(-c3ccc(Br)cc3)n2)C1 (stereo unspecified)	1.7	1	12	-0.2	.	-7	-3	0.72	-1.1
O=C(Nc1ccc(N2CCCC2)c(Cl)c1)c1ccc([N+](=O)[O-])cc1	2.1	2	0	-1.1	i	-16	6	0.71	-1.8
O=C(NC(=O)c1ccc(Cl)cc1)Nc1cc(N2CCCCC2)ncn1	3.5	.	.	.	.	-4	-4	0.78	-1.5
CCOc1ccc(/C=C/C(=O)Oc2ccc(OC)cc2)cc1	-0.6	-7	-7	-2.4	i	0	4	0.69	0.8
O=C(CC1COc2ccccc2O1)NC1CCCCC1 (stereo unspecified)	-1.7	.	.	.	.	-5	0	0.75	1.6
CCOc1ccccc1C(=O)NCC(=O)OCc1c(C)noc1C	6.7	-1	5	2.3	i	-4	-6	0.64	1.1
Cc1cccc(NC(=O)Cn2c(/C=C/c3ccccc3)nc3ccccc32)c1	-32	-16	-10	10	i	-12	5	0.69	-1.8
CCOC(=O)C1CCN(Cc2cc(=O)n3c(-c4ccccc4)csc3n2)CC1	-0.9	6	6	2.0	i	0	6	0.73	2.0
COc1cccc(OC)c1OCCCN1CCOCC1	2.2	.	.	.	.	-20	1	0.69	2.2
CC(=O)C1=C(C)Nc2ncnn2C1c1ccccc1F (stereo unspecified)	2.6	-20	-15	-1.0	i	6	-6	0.68	3.7
COc1cccc(N2CC(NC(=O)c3ccc4ccccc4c3)CC2=O)c1 (stereo unspecified)	3.4	1	12	-0.8	i	-1	7	0.64	0.3
COc1ccc(CCNC(=O)C(=O)NCC2OCCN2S(=O)(=O)c2ccc(Br)cc2)cc1OC (stereo unspecified)	1.7	2	8	-5.2	i	-12	6	0.71	-1.6
Cc1cccc(N2N=C(C(=O)N3Cc4ccccc4CC3C(N)=O)CCC2=O)c1 (stereo unspecified)	3.2	-2	-3	-2.1	i	42	10	0.71	-5.7
Cn1c(SCC(=O)NCc2ccc3c(c2)OCO3)nc2scc(-c3cccs3)c2c1=O	-2.9	.	.	.	.	.	14	0.66	-5.0
COC(=O)Cc1cc(=O)[nH]c(Nc2nc3ccccc3o2)n1	3.6	.	.	.	.	-4	-3	0.64	1.3
O=C(O)COc1ccccc1C(Nc1cccnc1)c1cc(Cl)c2cccnc2c1O (stereo unspecified)	1.6	.	.	.	.	.	4	0.65	-3.4
Cc1cc(NC(=O)CN2CCC(O)(c3cccc(F)c3)CC2)no1	0.8	.	.	.	.	-3	7	0.72	0.0
Nc1nc(SCC(=O)Nc2cccnc2Cl)n[nH]1	-0.8	18	7	3.2	i	-2	13	0.68	-3.8
Cc1c(-c2ccccn2)c(=O)[nH]n1-c1ccc(F)cc1	11	9	-2	0.7	.	24	-13	0.65	4.5
CC(C)c1nc2ccc(NC(=O)C3CCCCC3)cc2[nH]1	0.5	.	.	.	.	0	-4	0.68	-4.7
COc1ccc(C(=O)N(CN2CCCC2=O)c2nccs2)cc1OC	6.4	.	.	.	.	-3	-7	0.76	1.1
O=C(CSc1nc2nc(-c3cccs3)cc(C(F)(F)F)c2c(=O)[nH]1)Nc1ccc(F)c(F)c1	-214	6	1	2.9	i	12	10	0.73	-12
CCCCn1nnnc1C(c1cc2ccccc2o1)N1CCN(c2ccccc2F)CC1 (stereo unspecified)	.	14	20	1.0	i	.	.	.	6.5
COc1cccc(-c2cc(C(=O)N3CCN(C(=O)c4ccco4)CC3)[nH]n2)c1	-0.5	-3	-4	1.0	i	-2	-4	0.64	-1.6
CC(=O)c1ccc(OCCCC(=O)Nc2ccc(C)c(S(=O)(=O)N(C)C)c2)cc1	0.5	.	.	.	.	-4	-5	0.7	0.5
O=C(CSc1nnc(Cc2cccs2)n1-c1ccccc1)NCc1ccc2c(c1)OCO2	2.0	.	.	.	.	-6	-19	0.69	0.8
Cc1ccc(-c2nnc(-n3nnc4ccccc43)c3ccccc23)cc1	0.5	.	.	.	.	-13	4	0.68	1.9
N#Cc1ccccc1OCCCNC1CCCC1	1.0	12	13	5.5	i	-2	-2	0.69	2.1
O=C(O)c1cc(-c2cccs2)nc2ccc(F)cc12	i	-1	-10	-1.1	i	18	-6	0.65	-2.1
CCCNC(=O)C1(C)CCCN(C(=O)c2cc(F)ccc2C)C1 (stereo unspecified)	.	12	16	2.8	i	.	.	.	0.4

Looked up by compound from the list above, five records:
SMILES	UCH37 DUB inh	Ecoli rRNA inh	Ecoli rRNA inh OD600	Ecoli rRNA inh RFP	FGF22 binding	ALR inh	Beta2AR agonist	E coli growth	HNF4A DNA FP
CC(=O)c1ccc(OCCCC(=O)Nc2ccc(C)c(S(=O)(=O)N(C)C)c2)cc1	0.5	.	.	.	.	-4	-5	0.7	0.5
O=C(O)c1cc(-c2cccs2)nc2ccc(F)cc12	i	-1	-10	-1.1	i	18	-6	0.65	-2.1
CC(C)c1nc2ccc(NC(=O)C3CCCCC3)cc2[nH]1	0.5	.	.	.	.	0	-4	0.68	-4.7
CCCNC(=O)C1(C)CCCN(C(=O)c2cc(F)ccc2C)C1 (stereo unspecified)	.	12	16	2.8	i	.	.	.	0.4
COc1cccc(-c2cc(C(=O)N3CCN(C(=O)c4ccco4)CC3)[nH]n2)c1	-0.5	-3	-4	1.0	i	-2	-4	0.64	-1.6

The results go on:
SMILES	UCH37 DUB inh	Ecoli rRNA inh	Ecoli rRNA inh OD600	Ecoli rRNA inh RFP	FGF22 binding	ALR inh	Beta2AR agonist	E coli growth	HNF4A DNA FP
N=C1/C(=C/c2ccc(OC(=O)c3ccco3)cc2)C(=O)N=C2SC=CN12	4.4	4	4	3.8	i	98*	-5	0.71	2.9
O=C(CC1CS(=O)(=O)CC1CC(=O)Oc1ccccc1F)Oc1ccccc1F (stereo unspecified)	5.2	.	.	.	i	.	-5	0.73	0.9
NC(=O)CC(NC(=O)c1ccccc1)c1ccc(NC2CCC2)c([N+](=O)[O-])c1 (stereo unspecified)	1.7	2	-2	-5.1	i	3	-17	0.67	2.6
Cc1ccc(CNc2ncnc3ccc(-c4ccc(CO)o4)cc23)o1	.	2	6	-1.1	i	.	.	.	1.7
COc1ccccc1NC(=O)c1ccc(CS(=O)(=O)c2ccc(C)cc2)cc1	-1.3	9	2	2.3	i	.	3	0.72	-0.9
Cc1ccn2c(c1)nc(=O)c1cc(S(=O)(=O)N3CCOCC3)ccc12	-342	4	14	-1.3	i	-7	-2	0.69	-4.8
CC1Cc2ccccc2N1C(=O)CSc1nnc(-c2ccc(S(=O)(=O)N3CCOCC3)cc2)n1C (stereo unspecified)	1.1	.	.	.	.	-7	5	0.68	0.9
Cc1cc(OCC(=O)N2CCC(C(N)=O)CC2)c2c(C)c(C)c(=O)oc2c1	-20	.	.	.	.	.	5	0.71	3.2
Cc1c(NC(=O)CSc2ccc3ccccc3n2)c(=O)n(-c2ccccc2)n1C	4.7	-1	4	-0.9	i	-1	-7	0.69	1.7
COc1ccc(F)cc1S(=O)(=O)Nc1cccc(C(=O)O)c1	6.6	10	-1	0.7	i	-19	2	0.7	6.6
COc1ccccc1CCNC(=O)C(=O)NCCC1CCCCN1S(=O)(=O)c1cccs1 (stereo unspecified)	0.6	-8	-11	3.9	i	-57	-5	0.63	0.8
